Sfp PPTase inh: Sfp phosphopantetheinyl transferase inhibition. Q9F4F7. Biochemical Sfp PPTase activity, qHTS. Potency, µM, for the others: max response, negative = inhibition, hits mostly inhibitors. 3.5% of 310,000 active. AID 1490; active = well fitted inhibition curve with a large enough effect; inconclusive = small, poorly fitted or top-dose-only effect, or another doubt; inactive = no such curve, though single readings can be large or run the other way;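 note: the enzyme is Sfp with the accession as filed and its product quenches rhodamine fluorescence; potency is the fitted concentration of half-maximal effect; 0% = enzyme reaction without inhibitor and -100% = no enzyme wells; top concentration of the series not given in the record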
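Sfp 15 nM + cpd, 15 min RT; start w/ rhodamine-CoA 5 uM, BHQ-2-YbbR 12.5 uM (final); 50 mM Hepes pH 7.6, 10 mM MgCl2, 0.01% NP-40, 0.01% BSA; read 525/598 nm at 0 and 30 min.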
TRPML1 blocker: human mucolipin-1 channel inhibition | Q9GZU1 | TRPML1-inducible cells, Ca2+ dye fluorescence, FDSS; hits give low values; inhibition of EC80 agonist-evoked calcium signal | activity change, negative = inhibition, % (test concentration not listed) | 0.02% of 390,000 active | AID 624415; in the data active means activity change below about -50%; inconclusive means about -30% to -50%; inactive means above about -30%;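 note: stimulus is agonist 54-4 at its EC80 concentration; % is set by controls: 0 for no effect and ±100 for the full control effect; compound concentration not given in the record; the text of the record puts the active cut at -80%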
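TRPML1-DL cells, Tet-induced overnight (~16 h, 37 °C) at 1,500 cells/well, were loaded with Ca8 no-wash dye plus quencher for 45-90 min at room temperature. Compounds were pinned during FDSS kinetic reading; agonist 54-4 at EC80 (4 uM final) then added.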
PINK1 expr mod: PINK1 expression modulation. PINK1 immunofluorescence, high-content cytometry, 24 h. Potency, µM (highest dose often 76.6 µM), for the others: at the highest dose activation (PINK1 increase), usual class: activators. 0.2% of 410,000 active; active = well fitted activation curve with a large enough effect; inconclusive = small, poorly fitted or top-dose-only effect; inactive = flat fitted curve, though single readings scatter; cell line not stated here;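 note: potency is the fitted concentration of half-maximal effect; % of control where 0% means no effect; nearly all actives have a fitted effect of over 65% in size; a mitochondrial uncoupler was the plate control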
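Readout is PINK1 immunofluorescence, quantified alongside mitochondrial, cell and nuclear markers by laser-scanning microplate cytometry. Cells from a stable line were exposed to compound titrations (5 concentrations) for 24 hours, with CCCP controls.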
Menin MLL FP FL: displaces fluorescein MLL peptide from human menin; Fluorescence polarization, fluorescein-MLL peptide displacement from menin; FP activity change, % at 61.4 µM; 290,000 tested, under 10 active; AID 1766; inconclusive = falling polarisation curve, or a change in total fluorescence; inactive = total fluorescence flat and polarisation flat or rising; no compound was filed as active; the % refers to the polarisation; negative = inhibition;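 note: % of control where 0% means no effect; inhibitors lower the polarisation; unlabelled MLL peptide was the positive control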
TRPML1 agonist: agonists of human TRPML1 channel; 0.12% of 410,000 active; activation, % (no concentration beside the values); TRPML1-expressing cells, Ca2+ dye fluorescence, FDSS; host cell line not named in the record; reference of the full effect not given here; Q9GZU1; in the data active = activation above about 50%; inconclusive = about 30% to 50%; inactive = below about 30%; note: 0% is about no effect; the text of the record puts the active cut at 80%
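In this qHTS format, compounds were pin-transferred onto Ca8-dye-loaded TRPML1-DL cells induced with Tet overnight, and intracellular Ca2+ fluorescence was recorded kinetically for 110 s after a 10 s baseline. A subsequent 4uM final 54-4 (EC80) addition followed by a second 110 s read served as the antagonist phase.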
ClpP mod: qHTS Assay for Activators of ClpP. Potency, µM (highest dose often 57.5 µM), inactives show top-dose activity change, negative = active. ATP-dependent Clp protease proteolytic subunit (Bacillus subtilis (strain 168)), P80244. purified B. subtilis ClpP, FRET peptide cleavage, 20 min. 1.9% of 340,000 active; active = well fitted falling curve with a large enough effect; inconclusive = small, poorly fitted or top-dose-only effect; inactive = no such curve, though single readings can be large or run the other way; note: potency is the fitted concentration of half-maximal effect; the source files actives as falling curves though it sought activators and does not explain the sign; nearly all actives have a fitted effect of over 65% in size; many hits overshoot -100%
Target sequence (P80244 whole entry, looked up): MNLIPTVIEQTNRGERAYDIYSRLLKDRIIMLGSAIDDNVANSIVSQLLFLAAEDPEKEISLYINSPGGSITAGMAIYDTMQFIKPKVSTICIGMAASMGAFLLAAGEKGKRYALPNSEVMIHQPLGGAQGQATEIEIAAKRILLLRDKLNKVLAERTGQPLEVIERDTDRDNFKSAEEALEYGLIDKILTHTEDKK
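Purified B. subtilis ClpP, 10 microg/mL final in Tris/HCl pH8 with KCl, BSA, glycerol and Tween-20, cleaved an Abz/nitrotyrosine-quenched decapeptide. Fluorescence (ex 320, em 430) was read at 0 and 20 min at room temperature. Delta was normalized to 5.8 microM ADEP and DMSO/no-enzyme controls.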
TRPV1 potentiator: human TRPV1 potentiation; Q8NER1; TRPV1-expressing cells, Fluo-8 calcium influx, capsaicin EC20 potentiation; host cell line not named in the record; control for the full effect not named in the record; potentiation, % at 8.33 µM; 0.02% of 320,000 active; AID 540277; active means potentiation above 80%; inconclusive means 30% to 80%; inactive means below 30%; note: 0% is about no effect
Target sequence (Q8NER1 whole entry, looked up): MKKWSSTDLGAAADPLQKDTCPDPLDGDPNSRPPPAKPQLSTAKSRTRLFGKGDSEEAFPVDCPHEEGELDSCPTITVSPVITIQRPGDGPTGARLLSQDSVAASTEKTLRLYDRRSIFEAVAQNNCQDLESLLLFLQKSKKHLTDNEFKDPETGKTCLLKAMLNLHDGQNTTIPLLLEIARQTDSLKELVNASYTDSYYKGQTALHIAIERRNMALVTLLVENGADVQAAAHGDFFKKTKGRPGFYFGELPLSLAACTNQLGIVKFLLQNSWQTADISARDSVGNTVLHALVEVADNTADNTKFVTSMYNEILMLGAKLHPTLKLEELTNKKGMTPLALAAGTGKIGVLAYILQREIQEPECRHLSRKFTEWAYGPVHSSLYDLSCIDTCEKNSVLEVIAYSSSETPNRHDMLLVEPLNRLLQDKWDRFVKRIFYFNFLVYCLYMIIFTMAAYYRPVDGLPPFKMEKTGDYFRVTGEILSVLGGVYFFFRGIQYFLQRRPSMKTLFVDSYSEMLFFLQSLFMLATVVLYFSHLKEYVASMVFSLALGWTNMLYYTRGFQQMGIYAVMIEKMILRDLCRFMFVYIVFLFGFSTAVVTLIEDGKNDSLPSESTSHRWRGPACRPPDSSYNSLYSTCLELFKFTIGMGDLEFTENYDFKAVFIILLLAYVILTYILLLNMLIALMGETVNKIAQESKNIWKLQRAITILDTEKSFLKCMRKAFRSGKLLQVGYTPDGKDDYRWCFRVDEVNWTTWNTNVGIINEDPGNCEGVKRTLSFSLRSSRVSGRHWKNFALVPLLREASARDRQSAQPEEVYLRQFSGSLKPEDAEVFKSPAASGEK
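Cells expressing TRPV1 were dye-loaded with Fluo-8 and read kinetically: 10 s baseline, 3 min after compound (agonist portion), then 2 min after EC20 capsaicin (allosteric enhancer portion). Calcium-bound dye fluorescence at 480/520 nm.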
Starred values were filed as active, the others as inactive; [ ] = remark or other dose. Compounds were not picked by outcome, and some 4.4% of all compounds hit somewhere here.

For CN=C1NN=C(c2cc(C)n(-c3c(C)n(C)n(-c4ccccc4)c3=O)c2C)CS1 the results were Sfp PPTase inh 50µM*, TRPML1 blocker 7, PINK1 expr mod -1.2%, Menin MLL FP FL 21, TRPML1 agonist -0.1 and TRPV1 potentiator -1.
O=C(CN1C(=O)C2CCCCC2C1=O)N1CCN(c2ncccn2)CC1 (configuration not stated) was read as Sfp PPTase inh 14%, TRPML1 blocker -12, PINK1 expr mod 1.9%, Menin MLL FP FL 0.4, TRPML1 agonist 0.3 and TRPV1 potentiator 5.
`Clc1ccc(OCCCCCN2CCOCC2)cc1` gave Sfp PPTase inh 9%, TRPML1 blocker 9, PINK1 expr mod 0.6%, Menin MLL FP FL 5.3, TRPML1 agonist -0.1 and TRPV1 potentiator 11.
For CCOC(=O)c1c(N)sc(C(O)(C(F)(F)F)C(F)(F)F)c1-c1ccccc1 the results were Sfp PPTase inh 31%[activator], TRPML1 blocker -1, PINK1 expr mod -2.6%, Menin MLL FP FL -0.1, TRPML1 agonist 3.4, ClpP mod 0.7% and TRPV1 potentiator 6.
Screening Cc1cccc(NC(=S)N(CCN(C)C)Cc2cccs2)c1 returned Sfp PPTase inh 19%, TRPML1 blocker -6, PINK1 expr mod -0.9%, Menin MLL FP FL -0.1, TRPML1 agonist 0.0 and TRPV1 potentiator -10.
For CCC(NC(=O)Cc1cccs1)c1ccccc1 (configuration not stated) the results were Sfp PPTase inh 9%, TRPML1 blocker 5, PINK1 expr mod -0.3%, Menin MLL FP FL -5.0, TRPML1 agonist 0.3 and TRPV1 potentiator 11.
Screening Clc1cccc(Cl)c1CSc1nnc(CN2CCOCC2)n1-c1ccccc1 returned Sfp PPTase inh 6%, TRPML1 blocker 30, PINK1 expr mod -1.4%, Menin MLL FP FL 0.4, TRPML1 agonist 0.5, ClpP mod -1.1% and TRPV1 potentiator -4.
`Cc1cnc(NC(=O)c2cc(S(=O)(=O)N(C)C)ccc2N2CCCC2)s1` gave TRPML1 blocker 1, PINK1 expr mod 0.1% and TRPML1 agonist -0.3.
Cc1cc(CCNC=O)c(C)c2c1sc1ccccc12 was read as TRPML1 blocker 7, PINK1 expr mod 0.7%, TRPML1 agonist 1.1 and ClpP mod 3.9%.
For Cc1nc(C)c(CCNC(=O)c2ccc(C(F)(F)F)cc2)s1 the results were Sfp PPTase inh -3%, TRPML1 blocker 10, PINK1 expr mod 0.8%, Menin MLL FP FL 1.1, TRPML1 agonist 1.7, ClpP mod -1.2% and TRPV1 potentiator 3.
For CC(C)[C@H](NC(=O)c1ccccc1F)C(=O)NC1CCCCCCC1 the results were TRPML1 blocker -6, PINK1 expr mod 6.1%, TRPML1 agonist -0.1 and ClpP mod -2.3%.
`CCOC(=O)N1CCN(S(=O)(=O)c2ccc([N+](=O)[O-])cc2)CC1` gave Sfp PPTase inh 19%, TRPML1 blocker 0, PINK1 expr mod 3.1%, Menin MLL FP FL -1.7, TRPML1 agonist 0.2 and TRPV1 potentiator -2.
CC(=O)N1CCN(S(=O)(=O)c2cccc(C(=O)NCCC3=CCCCC3)c2)CC1 was read as TRPML1 blocker 43, PINK1 expr mod 3.4%, TRPML1 agonist -0.3, ClpP mod -3.8% and TRPV1 potentiator 4.
Screening O=C(Nc1cccc(Cl)c1)OCCOc1ccccc1 returned Sfp PPTase inh -6%, PINK1 expr mod 3.7%, Menin MLL FP FL 2.7, ClpP mod -0.7% and TRPV1 potentiator -2.
Screening Cc1ccc(C)c(N2CCN(C(=O)C(C)n3nc(C)c4sc5ccccc5c4c3=O)CC2)c1 (configuration not stated) returned TRPML1 blocker -18, PINK1 expr mod 1.7%, TRPML1 agonist -0.1 and ClpP mod -1.5%.
CC1=C(C#N)CCC(=O)N1Cc1c(F)cccc1Cl was read as Sfp PPTase inh 8%, TRPML1 blocker 2, PINK1 expr mod 0.0%, Menin MLL FP FL -2.9, TRPML1 agonist 0.0 and TRPV1 potentiator 2.
CC(C)c1cccc(OCCn2c(-c3ccc(Cl)cc3)nc3ccccc3c2=O)c1 was read as TRPML1 blocker 23, PINK1 expr mod 1.5%, TRPML1 agonist 0.1 and ClpP mod -18%.
`N#Cc1c(-c2ccccc2)c(-c2ccccc2)n(Cc2ccco2)c1NC(=O)c1cccs1` gave Sfp PPTase inh 15%, TRPML1 blocker -9, PINK1 expr mod 0.7%, Menin MLL FP FL 2.7, TRPML1 agonist -0.3, ClpP mod -17% and TRPV1 potentiator 16.
N#Cc1cc(-c2ccc(Cl)cc2)cn(Cc2c(Cl)cccc2Cl)c1=O was read as Sfp PPTase inh inconclusive, TRPML1 blocker 50, PINK1 expr mod inconclusive, Menin MLL FP FL -2.4, TRPML1 agonist 0.4 and ClpP mod 25µM*.
`CC(CCc1ccco1)NC(=O)c1cc2c(-c3ccccc3F)nn(C)c2s1` (configuration not stated) gave Sfp PPTase inh 45µM*, TRPML1 blocker 42, PINK1 expr mod 2.2%, Menin MLL FP FL 0.6, TRPML1 agonist 1.2, ClpP mod -14% and TRPV1 potentiator -5.
`CN(C)c1oc(-c2ccccc2Cl)nc1P(=O)(c1ccccc1)c1ccccc1` gave Sfp PPTase inh inconclusive, TRPML1 blocker 6, PINK1 expr mod -4.6%, Menin MLL FP FL -4.2, TRPML1 agonist 0.2, ClpP mod 20µM* and TRPV1 potentiator -8.
`Cc1cc(C)c(C2C3=C(Nc4c2c(C)nn4-c2ccccn2)c2ccccc2C3=O)c(C)c1` (configuration not stated) gave Sfp PPTase inh -3%, TRPML1 blocker 11, PINK1 expr mod 2.9%, Menin MLL FP FL 0.7, TRPML1 agonist -0.5, ClpP mod -1.7% and TRPV1 potentiator -14.
`O=C(COc1ccc(Cl)cc1)Nc1ccc(Cc2ccncc2)cc1` gave Sfp PPTase inh -5%, TRPML1 blocker -5, PINK1 expr mod 1.8%, Menin MLL FP FL 2.8, TRPML1 agonist 0.8, ClpP mod 7.1µM* and TRPV1 potentiator -6.
CC12CCC(C(=O)NCc3ccccc3Cl)(OC1=O)C2(C)C (configuration not stated) was read as Sfp PPTase inh 14%, TRPML1 blocker 21, PINK1 expr mod 1.6%, Menin MLL FP FL -2.8, TRPML1 agonist 0.6, ClpP mod -1.6% and TRPV1 potentiator -6.
For CCOC(=O)c1ccc(N2C(=O)CC(N(Cc3ccc4c(c3)OCO4)C(=O)Nc3ccccc3)C2=O)cc1 (configuration not stated) the results were Sfp PPTase inh -2%, TRPML1 blocker -8, PINK1 expr mod 1.8%[38.3 µM], Menin MLL FP FL 7.2, TRPML1 agonist -0.3, ClpP mod 0.1% and TRPV1 potentiator 0.
For Cc1ccc(CNC(=O)CCCc2cn(C)c3ccccc23)cc1 the results were Sfp PPTase inh 7%, TRPML1 blocker 4, PINK1 expr mod 2.4%, Menin MLL FP FL 1.8, TRPML1 agonist -0.2, ClpP mod 28µM* and TRPV1 potentiator -12.
COCCNC(=O)CN1C(=O)/C(=C/c2ccccc2)Oc2ccc(C(C)(C)C)cc21 was read as Sfp PPTase inh inconclusive, TRPML1 blocker 3, PINK1 expr mod 5.3%, Menin MLL FP FL 8.4, TRPML1 agonist 3.3, ClpP mod 4.0% and TRPV1 potentiator 8.
`CCN(C(=O)CSc1nnnn1-c1cc(C)ccc1OC)C1CCS(=O)(=O)C1` (configuration not stated) gave Sfp PPTase inh 14%, TRPML1 blocker -9, PINK1 expr mod 0.5%, Menin MLL FP FL 0.9, TRPML1 agonist -0.7, ClpP mod -0.6% and TRPV1 potentiator 5.
Screening CCC1(C)Cc2c(sc3nc(SC)[nH]c(=S)c23)CO1 (configuration not stated) returned Sfp PPTase inh 3%, TRPML1 blocker -7, PINK1 expr mod 4.9%, Menin MLL FP FL 3.6, TRPML1 agonist 0.2 and TRPV1 potentiator 8.
For Cc1ccccc1OCC(=O)Nc1ccc2c(c1)COC2=O the results were Sfp PPTase inh 12%, TRPML1 blocker -9, PINK1 expr mod -2.1%, Menin MLL FP FL 3.5, TRPML1 agonist -0.5, ClpP mod -1.6% and TRPV1 potentiator -20.
Screening O=C1C2C3C=CC([C@@H]2C(=O)N1Cc1cccnc1)C31CC1 (some centres not stated) returned Sfp PPTase inh -4%, TRPML1 blocker 2, PINK1 expr mod -2.0%, Menin MLL FP FL -1.1, TRPML1 agonist -0.7, ClpP mod 0.4% and TRPV1 potentiator 0.
For Cc1nnc(SC(C(=O)Nc2ccc(Cl)c([N+](=O)[O-])c2)c2ccccc2)[nH]c1=O (configuration not stated) the results were Sfp PPTase inh -45%, TRPML1 blocker 12, PINK1 expr mod -0.7%, Menin MLL FP FL 1.4, TRPML1 agonist -1.5, ClpP mod 1.0% and TRPV1 potentiator 19.
Screening O=C(Cc1cccc(NC(=O)C2CCN(C(=O)CCc3ccccc3)CC2)c1)Nc1cccc(C(=O)N2CCCCC2)c1 returned TRPML1 blocker 25, PINK1 expr mod 1.0%, TRPML1 agonist 0.5 and ClpP mod -3.0%.
Screening COc1ccc(O)c(C(=O)c2cnc3onc(C)c3c2)c1 returned Sfp PPTase inh 1%, TRPML1 blocker -14, PINK1 expr mod 2.5%, Menin MLL FP FL 4.0, TRPML1 agonist 0.6, ClpP mod -0.6% and TRPV1 potentiator 21.
For CN(C)/C=C1\SC(=S)N(c2ccc(F)cc2)C1=O the results were Sfp PPTase inh -15%, TRPML1 blocker -12, PINK1 expr mod -1.3%, Menin MLL FP FL inconclusive, TRPML1 agonist 1.3, ClpP mod -0.2% and TRPV1 potentiator -3.
O=C1CC(c2c[nH]c3ccccc23)C(=O)N1c1ccccc1 (configuration not stated) was read as Sfp PPTase inh 1%, TRPML1 blocker 2, PINK1 expr mod -1.1%, Menin MLL FP FL 1.0, TRPML1 agonist -0.5, ClpP mod 0.7% and TRPV1 potentiator -15.
`Cc1cccn2c(=O)nc(SCC(=O)NC3CCCCC3)nc12` gave TRPML1 blocker 2, PINK1 expr mod 2.6%, TRPML1 agonist -0.8 and TRPV1 potentiator 1.
For COCCCNC(=O)c1nc2ccccc2c(=O)n1NC(=O)Nc1c(Cl)cccc1Cl the results were Sfp PPTase inh 16%, TRPML1 blocker 8, PINK1 expr mod 1.0%, Menin MLL FP FL -6.4, TRPML1 agonist -0.7, ClpP mod -4.0% and TRPV1 potentiator 3.

Compound activity from PubChem BioAssay.
